Screening results from PubChem BioAssay.
Anaer choline gr – choline-fed anaerobic bacterial growth inhibition; Gram-negative bacterium anaerobic choline minimal medium, absorbance growth; active compounds read low; many inactives read as strong as hits in the columns shown; calls only; 0.2% of 55,000 active;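 active = growth z-score on choline under -2 at 7 or 20 h with little or no fall on glycerol, limits in tiers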;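 note: stock transfer was 300 nL into about 50 µL; the organism is E. coli; final concentration not given here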
Anaer choline gr early – second read-out of Anaer choline gr, no call of its own (marks repeat the call); z-score; measured here: choline growth z-score, timepoint 1;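 score of optical density at 7 h as mean of two plates; lower means less growth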
The depositor's hits bear a star; i = inactive; & = joins results of further samples. Not all compounds are listed, so the mix of outcomes need not match the whole.

Start of the data: the first 3 records, to show the layout:
SMILES | Anaer choline gr early | Anaer choline gr
COc1ccc(C2CC(=O)C3=C(C2)Nc2ncnn2C3c2ccc(O)cc2)cc1 (stereo not given) | 0.39 | i
Cc1ccc(CNC(=O)Cn2c(C)nc3ccccc32)cc1 | -1.88 | i
Cn1c(CCc2ccccc2NC(=O)CCc2ccccc2)nc2ccccc21 | 0.1 | i

The listing, from the start:
SMILES | Anaer choline gr early | Anaer choline gr
COc1ccc(C2CC(=O)C3=C(C2)Nc2ncnn2C3c2ccc(O)cc2)cc1 (stereo not given) | 0.39 | i
Cc1ccc(CNC(=O)Cn2c(C)nc3ccccc32)cc1 | -1.88 | i
Cn1c(CCc2ccccc2NC(=O)CCc2ccccc2)nc2ccccc21 | 0.1 | i
CCNC(=O)N1CCCC(c2cccc(C(=O)N3CCC(C(=O)OCC)CC3)c2)C1 (stereo not given) | -0.36 | i
Cc1ccc(-n2nc(-c3ccccc3)c3c(C)cc(=O)[nH]c32)cc1 | 0.3 | i
O=C(Nc1cc(Cl)ccc1O)c1cc(-c2ccc(Cl)cc2)on1 | -0.29 | i
O=C(C1CCN(c2ccc(-c3cccc(F)c3)nn2)CC1)N1CCCC1 | -1.91 | i
CCNC(=O)N1CCc2cc(S(=O)(=O)NC3CCCC3)ccc21 | -0.27 | i
O=C(NC1CCCCC1)c1cnc2sc3c(n2c1=O)CCC3 | 0.38 | i
Cc1ccc(-n2nc(N3CCN(C(=O)c4cc5cc(Cl)ccc5[nH]4)CC3)ccc2=O)cc1 | -0.21 | i
CCc1ccc(N2C=C(C(=O)N3CCCC3)S(=O)(=O)c3ccccc32)cc1 | 0.37 | i
COc1ccc(S(=O)(=O)N2CCOCC2)cc1-c1noc(C(C)(C)C)n1 | 0.33 | i
CCOC(=O)c1cnn(-c2ccc(C(=O)N3CCN(C)CC3)cc2)c1N | 1.37 | i
Cc1nc(Nc2ccc(NS(=O)(=O)c3ccc(F)cc3F)cc2)cc(N2CCCC2)n1 | 0.64 | i
Cc1cccc2sc(NC(=O)c3nc4ccccc4nc3Cl)nc12 | 0.48 | i
Cc1sc(-c2cc(C(F)(F)F)[nH]n2)cc1S(=O)(=O)N1CCN(c2cccc(Cl)c2)CC1 | -0.23 | i
O=C(CN1C(=O)CCc2cc(S(=O)(=O)N3CCCC3)ccc21)Nc1nccs1 | 0.08 | i
CCC(C)NC(=O)CCCOc1cc(=O)n(C)c2ccccc12 (stereo not given) | 1.04 | i
O=C(NCc1ccc(Br)cc1)c1ccc(-c2cc(N3CCCC3)ncn2)cc1 | -0.25 | i
O=C(Nc1cnc2ccccn2c1=O)c1ccccc1Cl | 0.52 | i
Cc1cc(C)cc(NC(=O)CN2C=NS(=O)(=O)c3ccccc32)c1 | -1.07 | i
CC(C)NC(=O)C(C)C1CCN(S(=O)(=O)c2ccc(Br)s2)CC1 (stereo not given) | 0.25 | i
O=S(=O)(c1ccccc1)n1nc(-c2cccnc2)nc1NCc1ccc(F)cc1 | -0.3 | i
O[C@H]1[C@H]2c3cc4c(cc3CN3CCC(=C[C@@H]1O)[C@H]23)OCO4 | -1.46 | i
Cc1nnc(NC(=O)c2ccccc2OCc2nc(-c3ccccc3)no2)s1 | 0.16 | i
Cc1ccccc1Cn1c(C)c(C2CCN(S(=O)(=O)c3cn(C)cn3)CC2)c2ccccc21 | 0.71 | i
O=S(=O)(NCCn1c(CCc2ccccc2)nc2cccnc21)c1cccc2nsnc12 | -0.61 | i
Cc1ccc(NCc2ccc3c(c2)n(C)c(=O)n3C)cc1 | -0.06 | i
CCCCn1cnc2c(-c3ccccc3)cn(CC(=O)Nc3ccc(Cl)cc3)c2c1=O | 0.66 | i
Cc1nc(N2c3ccccc3CC2C)nc2c1C(=O)CC(C)C2 (stereo not given) | -1.04 | i
CCn1c(=O)c(C(=O)Nc2ncccn2)c(O)c2ccccc21 | -0.74 | i
CCOc1cc(CN2CCCC2c2cc(C(C)C)no2)ccc1OC(C)C (stereo not given) | 1.29 | i
O=C(CN1CCN(Cc2ccccc2)C(=O)C1=O)NCc1ccccc1Cl | -0.53 | i
COc1ccccc1CNC(=O)c1ccc2c(=O)nc3c(-c4ccccc4)n[nH]n3c2c1 | 0.25 | i
Cc1ccccc1NC(=O)C(C)Sc1nnc2ccc3ccccc3n12 (stereo not given) | 0.81 | i
CCN(Cc1ccccc1)S(=O)(=O)c1cc(-c2nc(C)cs2)sc1C | 1.43 | i
COc1ccc(-c2noc(CCC(=O)Nc3ccncc3)n2)cc1OC | -1.6 | i
O=S(=O)(NCCNC/C=C/c1ccc(Br)cc1)c1cccc2cnccc12 | -3.41&-3.95 | i
O=C(COc1ccc(Cl)cc1)NCCc1nc(-c2ccccc2)no1 | -0.57 | i
CCCCNC(=O)C(CC)N1C(=O)CCCc2ccccc21 (stereo not given) | 0.22 | i
Cc1nc(-c2ccc(S(=O)(=O)Nc3ccc(S(N)(=O)=O)cc3)cc2)co1 | -0.85 | i
Cc1cc(C)c2c(n1)SCCN2C(=O)Nc1ccc2c(c1)OCCO2 | -0.54 | i
Cc1nc2nc[nH]n2c(=O)c1Cc1ccccc1 | -0.69 | i
CCOc1c(OC)cccc1C1Nc2c(C)cc(C)cc2[C@H]2OCCC[C@@H]12 (stereo not given in full) | -0.61 | i
COc1ccccc1C(=O)Nc1c(-n2cnnc2)nn(C)c1C | -0.19 | i
C=Cc1ccc(CSc2nnc3n(C)c(=O)c4sccc4n23)cc1 | 0.5 | i
Cc1ccc(C)n1-c1nnc(N2CCCC(C(=O)NCCc3c[nH]c4ccccc34)C2)s1 (stereo not given) | 0.31 | i
Cc1nc2nc(N(Cc3cccc(F)c3)S(=O)(=O)c3ccccc3)nn2c(C)c1Cl | 0.33 | i
COc1cc(OC)cc(C(=O)N2CCN(C(=O)c3cc4ccccc4[nH]3)CC2)c1 | 0.91 | i
C=CCNC(=O)c1csc2c1CCCCC2 | 0.25 | i
O=C(c1ccc2c(c1)OCO2)N1CCC(c2noc(-c3ccc(S(=O)(=O)N4CCCC4)cc3)n2)CC1 | 0.79 | i
Cc1noc(-c2ccccc2OCC(=O)Nc2nnc(C(C)C)s2)n1 | -1.11 | i
Cc1c(S(=O)(=O)N2CCCCC2)c(C)n(C)c1-c1nnc(C2CCC2)o1 | -0.08 | i
Cc1cc(C2CCCN2C(=O)Nc2cccc(Cl)c2)no1 (stereo not given) | 1.14 | i
Cc1ccc(CNC(=O)C2CCCN(C(=O)c3nnc(C(=O)Nc4ccc(F)cc4)s3)C2)cc1 (stereo not given) | 0.32 | i
CC(C)CCNC(=O)CC1CCN(S(=O)(=O)c2ccc(Br)s2)CC1 | 0.53 | i
Cc1noc(C)c1C1CCCN1C(=O)c1nn(C)cc1Cl (stereo not given) | -1.97 | i
CCOC(=O)c1[nH]c(C)c(CCC(=O)N2CCCC(C(=O)NCCCN3CCCCC3)C2)c1C (stereo not given) | 0.35 | i
CCOc1ccc2c(c1)cc(C(=O)NC(C)C)n2C | 0.64 | i
CCC(=O)Nc1cccnc1-c1ccc(C(=O)Nc2ccc(CC)cc2)cc1 | 1.17 | i

Rewritten with values under each structure: 5 of the compounds above
Order of values – Anaer choline gr early	Anaer choline gr
- Cc1cc(C)c2c(n1)SCCN2C(=O)Nc1ccc2c(c1)OCCO2
 : -0.54	i
- O=S(=O)(NCCn1c(CCc2ccccc2)nc2cccnc21)c1cccc2nsnc12
 : -0.61	i
- CCOC(=O)c1cnn(-c2ccc(C(=O)N3CCN(C)CC3)cc2)c1N
 : 1.37	i
- CCOc1cc(CN2CCCC2c2cc(C(C)C)no2)ccc1OC(C)C (stereo not given)
 : 1.29	i
- O=C(CN1CCN(Cc2ccccc2)C(=O)C1=O)NCc1ccccc1Cl
 : -0.53	i

(next part)
SMILES | Anaer choline gr early | Anaer choline gr
O=C(CCc1ccccc1)N1CCC(N2CCN(Cc3cccc(F)c3)C(=O)C2=O)CC1 | -0.42 | i
CCc1nnc(NC(=O)CSc2nnc(Cc3c(C)nc4c(C)cccn4c3=O)n2C)s1 | 0.63 | i
O=C(NC1CCN(Cc2ccccc2)CC1)c1ccc2nc3ccc(Cl)cc3c(=O)n2c1 | -0.27 | i
Cc1onc(-c2ccc(Br)cc2)c1C(=O)NC(C)c1ccccc1 (stereo not given) | -0.4 | i
O=C(Nc1ccc(F)cc1F)c1cc(-c2ccncc2)n[nH]1 | 2.44 | i
CCC1(c2ccccc2)NC(=O)N(C)C1=O (stereo not given) | 0.14&0.5 | i
NC(=O)CNC(=O)c1sc2ncccc2c1-n1cccc1 | -1.14 | i
O=C(NCc1cccn1Cc1ccccc1)Nc1ccc(Br)cc1 | 2.69 | i
O=C(CSc1nnc2n(Cc3ccco3)c(=O)c3sccc3n12)NCc1ccco1 | -0.93 | i
Cc1cc(C)n(CC(=O)NCc2ccc(F)cc2)c(=O)c1S(=O)(=O)c1ccc(Br)cc1 | -0.19 | i
Cc1ccc(Nc2ncc(C(=O)N3CCC(C)CC3)c3ccccc23)cc1Cl | 0.65 | i
Cn1cnc(S(=O)(=O)Nc2ccc(-c3nc4ccccc4[nH]3)cc2)c1 | -1.98 | i
O=C(C1CCN(S(=O)(=O)c2ccc(-c3noc(-c4cnccn4)n3)cc2)CC1)N1CCCC1 | -0.23 | i
CCNc1nc2c(ncn2[C@H]2C[C@H](O)[C@@H](CO)O2)c(=O)[nH]1 | 0.31 | i
COc1ccc2c(c1)NC1(CCN(C(=O)Nc3ccc4c(c3)OCO4)CC1)c1cccn1-2 | -0.36 | i
CC1(C(=O)NC2CCCCC2)Cn2c(cc3sccc32)C(=O)N1Cc1ccccc1 (stereo not given) | 0.34 | i
O=C(c1cc(-c2ccc3c(c2)OCCO3)on1)N(Cc1ccccc1)C1CCS(=O)(=O)C1 (stereo not given) | 0.5 | i
CC(=O)N1CCCSc2ccc(S(=O)(=O)Nc3ccc(S(N)(=O)=O)cc3)cc21 | 1.04 | i
CCOC(=O)Cn1cc(CN2CCCC2c2c(C)noc2CC)c2ccccc21 (stereo not given) | 0.18 | i
O=C(O)c1nccnc1C(=O)Nc1ccc(F)cc1Cl | 0.38 | i
Cc1csc(-c2cc(S(=O)(=O)NCc3ccc(C(C)C)cc3)cn2CC(=O)N2CCCC2)n1 | 1.92 | i
CCc1ccccc1NC(=O)CN1C(=O)c2c(c3ccccc3n2C)C1c1ccc(OC)cc1 (stereo not given) | 0.65 | i
CCOc1ccc(NC(=O)NCc2nnnn2-c2ccccc2)cc1 | -1.11 | i
CCOc1ccc(NC(=O)C(CC)n2nc(-c3cc(C)ccc3C)ccc2=O)cc1 (stereo not given) | -0.14 | i
CCOC(=O)c1oc2ccc(S(=O)(=O)N3CCCC3c3cc(C)on3)cc2c1C (stereo not given) | 0.83 | i
CCN1CCCC1CNS(=O)(=O)c1cc(-c2nc(-c3ccc(F)cc3)no2)sc1C (stereo not given) | -2.09 | i
Cc1nn(C)c(C)c1CCN(C)C(=O)Nc1ccc2c(c1)OCO2 | 0.23 | i
CCOC(=O)c1c(NC(=O)c2cccc(-n3cnnc3)n2)sc2c1CCCC2 | -0.46 | i
Cc1[nH]c(C)c(S(=O)(=O)N2CCC(C(=O)Nc3ccc(Cl)cn3)CC2)c1C(=O)N1CCCCC1 | 0.03 | i
O=C(COc1ccc(F)cc1)Nc1noc(-c2ccccc2)n1 | -0.31 | i
CCCc1cnc2c(c1SCC(=O)N1CCC(C)CC1)c(=O)n(C)c(=O)n2C | -0.19 | i
CC(C)c1ccc(Nc2c(-c3ccc(N4CCOCC4)cc3)nc3ncccn23)cc1 | -2.36 | i
CN1C[C@H](C(=O)N[C@]2(C)O[C@@]3(O)[C@@H]4CCCN4C(=O)[C@H](Cc4ccccc4)N3C2=O)C[C@@H]2c3cccc4[nH]cc(c34)C[C@H]21 | 0.33&1.01 | i
C=CCn1c(SCc2nc(-c3cc(OC)cc(OC)c3)no2)nc2cc3c(cc2c1=O)OCO3 | 1.33 | i
Cc1ccc(Cn2nc3c(S(=O)(=O)N4CCOCC4)cccn3c2=O)cc1 | -1.22 | i
O=C(NC1CCS(=O)(=O)C1)c1cccc(S(=O)(=O)N2CCOCC2)c1 (stereo not given) | 0.06 | i
O=C(CSc1nc2ncccc2n2cccc12)NCCCc1ccccc1 | 0.9 | i
O=C(NC1CCN(Cc2ccccc2)CC1)C1CCN(c2cc(-c3ccc(F)cc3)ncn2)CC1 | -1.45 | i
COc1ccc(OC)c(NC(=O)C2CCCN2S(=O)(=O)c2ccc3c(c2)CC(C)N3C(C)=O)c1 (stereo not given) | -0.59 | i
COc1ccccc1N1CCN(S(=O)(=O)c2ccc3[nH]c(=O)ccc3c2)CC1 | -1.06 | i
CCC12CN3CC(CC)(CN(C1)C3c1ccccc1)C2=O (stereo not given) | -2.27 | i
COc1ccccc1N1CCN(CCCNc2c(C)c(=O)n(C)c(=O)n2C)CC1 | 0.09 | i
COc1ccc(C(CNC(=O)c2cc(-c3ccc(Br)cc3)on2)N(C)C)cc1OC (stereo not given) | -1 | i
COc1ccc(N2CC(O)=C(c3nc4ccccc4c(=O)[nH]3)C2=N)cc1OC | -0.32 | i
CCS(=O)(=O)Nc1cc(-c2nnc(C(C)C)o2)sc1C | 0.28 | i
CNC(=O)c1n[nH]c2c1CCCCCC2 | -0.41 | i
CC(C)n1nccc1-c1csc(S(=O)(=O)NCc2cccs2)c1 | -1.01 | i
Cc1cc2c(cc1S(=O)(=O)N1CCCC(C(=O)NC(C)(C)C)C1)OCC(=O)N2 (stereo not given) | 0.12 | i
CCS(=O)(=O)Nc1nc2n(n1)C(c1ccc(Cl)cc1)C=C(c1ccc(Br)cc1)N2 (stereo not given) | 0.39 | i
Cc1noc2c1C(c1ccc(O)c(O)c1)C1=C(CC(c3ccc(O)cc3)CC1=O)N2 (stereo not given) | 0.17 | i

2 compounds picked at random from those above, as already listed:
SMILES | Anaer choline gr early | Anaer choline gr
O=C(Nc1cnc2ccccn2c1=O)c1ccccc1Cl | 0.52 | i
COc1ccc(-c2noc(CCC(=O)Nc3ccncc3)n2)cc1OC | -1.6 | i
